HCMV UL50-53 inh = inhibitors of HCMV UL50-UL53 interaction, biochemical, HTRF; HCMV UL50-UL53 nuclear egress complex (human cytomegalovirus); normalized percent inhibition; inhibition, % (no concentration beside the values); actives 0.15% (n = 190,000);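 active means both replicates at 50% or more, plus weaker picks with an unusually low signal ratio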;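 further: stock transfer was 100 nL into about 20 µL; 0% = negative control wells and 100% = wells with untagged competitor protein; inactives centre near -12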
GIV-Gai inh = inhibitors of GIV peptide binding to Galpha-i3, primary screen, biochemical, fluorescence polarization, FITC-GIV GBA peptide, rat Galphai3; 90 min; hits give low values; scaled: aluminum fluoride 0%, vehicle 100%; percent of control (FP), % (no concentration beside the values); actives 0.42% (n = 210,000); AID 1224905, 2016;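 active means replicate mean at 85% of control or lower, very high polarization wells dropped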;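 further: wells of about 15 µL received 100 nL stock; the first replicate is given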
Target sequence (P08753 whole entry, looked up): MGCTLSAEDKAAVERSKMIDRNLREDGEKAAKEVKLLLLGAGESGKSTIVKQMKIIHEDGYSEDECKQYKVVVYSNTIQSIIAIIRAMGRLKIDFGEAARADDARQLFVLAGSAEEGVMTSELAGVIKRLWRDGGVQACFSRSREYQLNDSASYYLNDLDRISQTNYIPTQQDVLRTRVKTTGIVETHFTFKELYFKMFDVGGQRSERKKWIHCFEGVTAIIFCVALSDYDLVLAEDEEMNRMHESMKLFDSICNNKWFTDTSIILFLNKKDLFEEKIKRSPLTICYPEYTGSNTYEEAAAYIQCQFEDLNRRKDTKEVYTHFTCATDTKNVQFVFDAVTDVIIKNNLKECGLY
Sa growth 42C = S. aureus growth inhibition at 42 and 30 °C, primary screen, LtaS inhibitor project, RN4220, two temperatures | OD600, 20 h, 42 °C; hits give low values | relative growth, % (no concentration beside the values) | actives 0.53% (n = 170,000) | AID 720641, 2013;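 active means growth at 42 °C up to 50% and 20 or more points under that at 30 °C, or under 10% at both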;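 further: 300 nL library stock went into each well; scaled to the means of positive and negative controls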
Sa growth 42C second temp = recorded beside Sa growth 42C, whose call it bears; relative growth, %; measured here: growth at 30 °C;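 optical density after 20 h as mean of two plates; 100% = untreated growth and lower means inhibition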
An asterisk follows results filed as active; . = no result given.

[1] C=CCN1C(=O)/C(=C2/Sc3ccccc3N2CC)SC1=S
[2] CCCn1c(SCC(=O)NC(=O)NCc2ccccc2)n[nH]c1=O
[3] CN(C(=S)NCCc1ccccc1)C1CCCCC1
[4] O=C(Cc1ccccc1)Nc1ccc(Cn2cnc(-c3nc(-c4ccc(F)cc4)no3)c2)cc1
[5] CN(C)C(CNC(=O)C1(c2ccccc2)CC1)c1ccco1 (stereo unspecified)
[6] O=C(NCc1cccs1)C1CCN(c2ncnc3c2sc2cccc(F)c23)CC1

compound no.	1	2	3	4	5	6
HCMV UL50-53 inh	.	-5	-11	2	0	.
GIV-Gai inh	77*	.	.	110	.	104
Sa growth 42C	88	95	95	.	94	93
Sa growth 42C second temp	91	97	83	.	96	92

[7] CCC(=O)N1N=C(c2ccccc2)CC1c1cc2cc(OC)ccc2nc1Cl (stereo unspecified)
[8] CN(C)c1ccc(C(CNC(=O)c2ccc(Br)cc2)N2CCOCC2)cc1 (stereo unspecified)
[9] Cc1cc(NC(=O)Cn2c(=O)n(CC3CCCO3)c(=O)c3ccc(C(=O)NC4CCCCC4)cc32)n[nH]1 (stereo unspecified)
[10] COc1cc(C(=O)OC2CSCC2NC(=O)c2ccccc2)cc(OC)c1OC (stereo unspecified)
[11] COc1cc2c(cc1OC)C(COc1ccc3c(C)cc(=O)oc3c1)N(C(=O)Cc1ccc(F)cc1)CC2 (stereo unspecified)
[12] O=C(Cc1cccs1)N1CCC(Cc2ccccc2)CC1

compound no.	7	8	9	10	11	12
HCMV UL50-53 inh	.	-24	6	-9	-6	-1
GIV-Gai inh	105	100	98	.	103	100
Sa growth 42C	106	.	125	108	86	103
Sa growth 42C second temp	90	.	95	82	89	103

[13] COc1ccc2cc(C(=O)Nc3ccc(O)cc3)sc(=O)c2c1OC
[14] CCc1cccc(CC)c1NC(=O)CSc1ncn[nH]1
[15] COC(=O)COc1ccc(S(=O)(=O)Nc2ccc(OC)cc2)cc1C
[16] COc1cc2c(C(=O)N3CCOCC3)c(C)n(-c3ccccc3)c2cc1Br
[17] Cc1cccc(-c2cc(N3CCN(S(=O)(=O)c4ccc(F)cc4)CC3)ncn2)c1
[18] CCOc1ccc(NC(=O)c2cn(C3CCCCC3)c(=O)c3c2c2ccccc2n3C)cc1

compound no.	13	14	15	16	17	18
HCMV UL50-53 inh	.	-33	2	5	17	-6
GIV-Gai inh	103	.	104	97	105	103
Sa growth 42C	108	107	95	.	.	116
Sa growth 42C second temp	77	85	100	.	.	89

[19] COc1cccc(NC(=O)c2cc(=O)n3c(nc4ccccc43)s2)c1
[20] O=c1c2oc3ccccc3c2nc(SCc2nc(-c3ccccc3)no2)n1CC1CCCO1 (stereo unspecified)
[21] Cc1cccc(OCC(=O)Nc2ncn(Cc3ccc(Cl)cc3)n2)c1
[22] COc1ccc(OC)c(C2C(C#N)=C(N)Oc3n[nH]c(-c4ccc5ccccc5c4)c32)c1 (stereo unspecified)
[23] COc1ccccc1NC(C)=O
[24] O=c1[nH]c(N2CCCCC2)nc2ncc3c(c12)CCC3

compound no.	19	20	21	22	23	24
HCMV UL50-53 inh	-30	-21	36	-23	4	-11
GIV-Gai inh	97	101	104	105	97	109
Sa growth 42C	.	.	.	.	98	.
Sa growth 42C second temp	.	.	.	.	97	.

From no. 11 to 24, as listed above:
[11] COc1cc2c(cc1OC)C(COc1ccc3c(C)cc(=O)oc3c1)N(C(=O)Cc1ccc(F)cc1)CC2 (stereo unspecified)
[12] O=C(Cc1cccs1)N1CCC(Cc2ccccc2)CC1
[13] COc1ccc2cc(C(=O)Nc3ccc(O)cc3)sc(=O)c2c1OC
[14] CCc1cccc(CC)c1NC(=O)CSc1ncn[nH]1
[15] COC(=O)COc1ccc(S(=O)(=O)Nc2ccc(OC)cc2)cc1C
[16] COc1cc2c(C(=O)N3CCOCC3)c(C)n(-c3ccccc3)c2cc1Br
[17] Cc1cccc(-c2cc(N3CCN(S(=O)(=O)c4ccc(F)cc4)CC3)ncn2)c1
[18] CCOc1ccc(NC(=O)c2cn(C3CCCCC3)c(=O)c3c2c2ccccc2n3C)cc1

compound no.	11	12	13	14	15	16	17	18
HCMV UL50-53 inh	-6	-1	.	-33	2	5	17	-6
GIV-Gai inh	103	100	103	.	104	97	105	103
Sa growth 42C	86	103	108	107	95	.	.	116
Sa growth 42C second temp	89	103	77	85	100	.	.	89

[19] COc1cccc(NC(=O)c2cc(=O)n3c(nc4ccccc43)s2)c1
[20] O=c1c2oc3ccccc3c2nc(SCc2nc(-c3ccccc3)no2)n1CC1CCCO1 (stereo unspecified)
[21] Cc1cccc(OCC(=O)Nc2ncn(Cc3ccc(Cl)cc3)n2)c1
[22] COc1ccc(OC)c(C2C(C#N)=C(N)Oc3n[nH]c(-c4ccc5ccccc5c4)c32)c1 (stereo unspecified)
[23] COc1ccccc1NC(C)=O
[24] O=c1[nH]c(N2CCCCC2)nc2ncc3c(c12)CCC3

compound no.	19	20	21	22	23	24
HCMV UL50-53 inh	-30	-21	36	-23	4	-11
GIV-Gai inh	97	101	104	105	97	109
Sa growth 42C	.	.	.	.	98	.
Sa growth 42C second temp	.	.	.	.	97	.

(cont.)
[25] COc1ccc(-n2nc(C(=O)Nc3ccc(F)c(Cl)c3)c(=O)n(C)c2=O)cc1
[26] O=c1[nH]nc(SCc2cccc(Oc3ccccc3)c2)c(=O)[nH]1
[27] COc1ccc(C(=O)COc2ccccc2OC)cc1
[28] CCOC(=O)c1c(S(=O)(=O)N2CCC(C(=O)N3CCN(c4cccc(C)c4C)CC3)CC2)c(C)n(C)c1C
[29] Cc1cc(N2CC34C=CC(O3)C(C(=O)O)C4C2=O)no1 (stereo unspecified)
[30] O=c1oc2ccccc2c(O)c1C=Nc1ccc(Cl)cc1

compound no.	25	26	27	28	29	30
HCMV UL50-53 inh	-27	-4	-26	.	-3	-8
GIV-Gai inh	101	106	.	107	105	103
Sa growth 42C	.	96	97	98	115	94
Sa growth 42C second temp	.	75	89	88	77	87

[31] CNC(=O)Nc1ccc(C(=O)OC)cc1
[32] CCCNC(=O)Cn1nc(C(F)(F)F)cc1C
[33] CCOC(=O)c1cc(C#N)c(C)nc1N1CCN(S(=O)(=O)c2ccccc2)CC1
[34] CCOC(=O)c1cccc(NC(=O)CC2C(=O)N(c3ccc(Cl)cc3)C(=O)N2C2CCCC2)c1 (stereo unspecified)
[35] O=C(Nc1ccccc1)N1C(=O)C2(OCCO2)c2cc(Br)ccc21
[36] CC(C)CCN1C(=O)N(c2ccccc2)C(=O)C1CC(=O)Nc1ccc(Cl)cc1 (stereo unspecified)

compound no.	31	32	33	34	35	36
HCMV UL50-53 inh	-8	-13	-15	.	-5	.
GIV-Gai inh	.	.	104	105	99	101
Sa growth 42C	82	111	90	87	.	86
Sa growth 42C second temp	80	104	92	94	.	77

[37] CCOc1ccc(-n2cc(C(=O)Nc3ccccc3OCC)c3cc(OC)c(OC)cc3c2=O)cc1
[38] CS(=O)(=O)Nc1ccc2c(c1)OCO2
[39] COc1ccc(OC)c(CNC(=O)c2cc3c(Cl)nc4ccccc4c3s2)c1
[40] CCOc1ccc(CNC(=O)C(CC)n2nc(C)c3sc4ccccc4c3c2=O)cc1OC (stereo unspecified)
[41] Cc1nn(CC(=O)N2CCN(C)CC2)c(=O)c2c(-n3cccc3)n(-c3ccccc3)nc12
[42] CC1CN(CC(=O)c2c(N)n(Cc3ccccc3)c(=O)n(C)c2=O)CC(C)O1 (stereo unspecified)

compound no.	37	38	39	40	41	42
HCMV UL50-53 inh	-3	-5	-30	-24	-1	10
GIV-Gai inh	103	104	105	106	104	.
Sa growth 42C	76	102	105	.	.	93
Sa growth 42C second temp	88	80	88	.	.	98

[43] NC(=O)Cn1nc2c3c(cccc3c1=O)-c1ccccc1-2
[44] C=CCN1C(=O)C2(c3ccccc31)c1c(oc3cc(C)c(C)cc3c1=O)C(=O)N2CC1CCCO1 (stereo unspecified)
[45] O=C(c1ccc(Br)cc1)c1cc2ccccc2o1
[46] Cc1cccc(OC(C)C(=O)N2CCCCC2)c1 (stereo unspecified)
[47] COC(=O)c1ccc(OC(=O)N2CCOCC2)cc1
[48] CCc1ccc(OCC(=O)N2CCc3ccccc32)cc1

compound no.	43	44	45	46	47	48
HCMV UL50-53 inh	-48	-18	4	-13	-11	-4
GIV-Gai inh	107	103	97	103	103	.
Sa growth 42C	102	.	110	111	95	100
Sa growth 42C second temp	78	.	73	99	89	94

[49] CCCNC(=O)Nc1nc2ccc(OC)cc2s1
[50] CC(=O)N(CCC(c1ccccc1)c1ccco1)Cc1ccc(OC(C)C)cc1 (stereo unspecified)
[51] O=C1Nc2ccc(F)cc2C12OCCO2
[52] COC(=O)c1cccc(NC(=O)c2nn(C)c(C(F)(F)F)c2Cl)c1
[53] COc1cc(/C=C2\SC(NC(C)=O)=NC2=O)cc(Br)c1OC(C)=O
[54] CCN(CC)C(=O)CSc1nsc(SCC(=O)N(CC)CC)c1C#N

compound no.	49	50	51	52	53	54
HCMV UL50-53 inh	4	-10	-33	11	-48	-8
GIV-Gai inh	107	100	104	103	105	97
Sa growth 42C	112	89	82	.	.	116
Sa growth 42C second temp	89	93	82	.	.	95

Assay outcomes deposited in PubChem by ICCB-Longwood Screening Facility, Harvard Medical School.
